From PubChem BioAssay
NOMO-1 viab = NOMO-1 AML cell viability reduction, primary screen, STK33 inhibitor project, CellTiter-Glo luminescence; NOMO-1 AML viability, 72 h; inhibition, % (test concentration not listed); hit rate 7.5% among 37,000; AID 2330, 2010;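 active = most replicates above 80%; inconclusive = exactly half above 80%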;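 note: wells of about 30 µL received 25 nL stock; 0% = median of vehicle wells and 100% = reference inhibitor level; the first replicate is given; inactives centre near 10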
Active calls of the source: *; ? = inconclusive. The list is partial, so the mix of outcomes need not match the whole.

A first look, six compounds:
SMILES	NOMO-1 viab
C[C@H]1CN([C@@H](C)CO)C(=O)c2cccc(NS(=O)(=O)c3ccccc3)c2O[C@@H]1CN(C)CC1CC1	8.9
C[C@H]1CN([C@@H](C)CO)C(=O)c2cccc(NC(=O)Nc3ccc(F)cc3)c2O[C@H]1CN(C)S(=O)(=O)c1cccs1	39.7
CS(=O)(=NS(=O)(=O)c1cccc2nsnc12)c1ccc(Cl)cc1 (configuration not stated)	-4.3
Cc1noc(C)c1NC(=O)Nc1ccc2c(c1)C(=O)N([C@H](C)CO)C[C@H](C)[C@H](CN(C)Cc1ccc3c(c1)OCO3)O2	30.3
Cc1ccc(S(=O)(=O)N(C)C[C@@H]2Oc3ccc(NC(=O)NC(C)C)cc3CC(=O)N([C@@H](C)CO)C[C@@H]2C)cc1	98.1*
C[C@@H]1CN([C@@H](C)CO)C(=O)c2cc(NC(=O)CCN3CCOCC3)ccc2O[C@H]1CN(C)C(=O)Nc1ccc(C(F)(F)F)cc1	2.1

Results, previewed entries included:
SMILES	NOMO-1 viab
C[C@H]1CN([C@@H](C)CO)C(=O)c2cccc(NS(=O)(=O)c3ccccc3)c2O[C@@H]1CN(C)CC1CC1	8.9
C[C@H]1CN([C@@H](C)CO)C(=O)c2cccc(NC(=O)Nc3ccc(F)cc3)c2O[C@H]1CN(C)S(=O)(=O)c1cccs1	39.7
CS(=O)(=NS(=O)(=O)c1cccc2nsnc12)c1ccc(Cl)cc1 (configuration not stated)	-4.3
Cc1noc(C)c1NC(=O)Nc1ccc2c(c1)C(=O)N([C@H](C)CO)C[C@H](C)[C@H](CN(C)Cc1ccc3c(c1)OCO3)O2	30.3
Cc1ccc(S(=O)(=O)N(C)C[C@@H]2Oc3ccc(NC(=O)NC(C)C)cc3CC(=O)N([C@@H](C)CO)C[C@@H]2C)cc1	98.1*
C[C@@H]1CN([C@@H](C)CO)C(=O)c2cc(NC(=O)CCN3CCOCC3)ccc2O[C@H]1CN(C)C(=O)Nc1ccc(C(F)(F)F)cc1	2.1
Cc1noc(C)c1S(=O)(=O)Nc1ccc2c(c1)C(=O)N([C@H](C)CO)C[C@H](C)[C@H](CN(C)C(=O)C1CCCCC1)OCCCC[C@@H](C)O2	39.5
C[C@@H]1CN([C@@H](C)CO)C(=O)Cc2cc(NC(=O)C3CCCCC3)ccc2O[C@@H]1CN(C)C(=O)Nc1ccc(C(F)(F)F)cc1	37.5
C[C@@H]1CN([C@@H](C)CO)C(=O)Cc2cc(NC(=O)Cn3cnnn3)ccc2O[C@@H]1CN(C)C(=O)NC1CCCCC1	8.3
CS(=O)(=O)N(CC(=O)Nc1cccc(C(F)(F)F)c1)c1cc(Cl)c(Cl)cc1Cl	139.5*
Cc1cc(C(=O)Nc2cccc3c2O[C@H](CN(C)Cc2ccc(Cl)c(Cl)c2)[C@@H](C)CN([C@H](C)CO)C3=O)n(C)n1	49.4
COC(=O)c1cccc(OC(C)C(=O)O)c1 (configuration not stated)	13.6
C[C@H]1CN([C@@H](C)CO)C(=O)c2cccc(NS(=O)(=O)c3cccs3)c2O[C@@H]1CN(C)Cc1ccc(-c2ccccc2)cc1	32.3
O=C(Nc1ccc(Cl)cc1)c1ccccc1NS(=O)(=O)c1cccc2cccnc12	12.6
COc1cc(/C(C)=C/C(C)(O)C(C)O)oc(=O)c1C (configuration not stated)	-9.4
Cc1noc(C)c1NC(=O)N(C)C[C@H]1OCCCC[C@@H](C)Oc2ccc(NS(=O)(=O)c3ccc(Cl)cc3)cc2C(=O)N([C@H](C)CO)C[C@@H]1C	2.3
Cc1sc2ncnc(SCC(=O)Nc3ccc4c(c3)OCCO4)c2c1C	7.4
C[C@@H]1CN([C@@H](C)CO)C(=O)c2cc(NS(=O)(=O)c3cn(C)cn3)ccc2O[C@@H]1CN(C)C(=O)Nc1ccccc1	5.3
Cc1noc(C)c1NC(=O)N(C)C[C@@H]1Oc2ccc(NC(=O)c3ccncc3)cc2C(=O)N([C@@H](C)CO)C[C@H]1C	27.9
CC(=O)c1cccc(NC(=O)Nc2nn(Cc3c(F)cccc3Cl)cc2Br)c1	106.0*
CNC[C@H]1Oc2c(NC(=O)c3cnccn3)cccc2C(=O)N([C@H](C)CO)C[C@@H]1C	8.1
O=C1CC(SCc2ccc(Cl)cc2)C(=O)N1c1ccc(Br)cc1 (configuration not stated)	12.2
C[C@H]1CN([C@@H](C)CO)C(=O)c2cc(NC(=O)C3CCCCC3)ccc2O[C@@H]1CN(C)C(=O)NC1CCCCC1	-6.0
C[C@H]1CN([C@@H](C)CO)C(=O)Cc2cc(NS(=O)(=O)c3cccs3)ccc2O[C@@H]1CN(C)Cc1ccc(C(F)(F)F)cc1	57.3
C[C@@H]1CN([C@@H](C)CO)C(=O)c2cccc(NS(=O)(=O)c3ccc(Cl)cc3)c2O[C@@H]1CN(C)S(=O)(=O)c1ccccc1	54.2

A draw from above in order of molar mass, descending.
SMILES	NOMO-1 viab
C[C@H]1CN([C@@H](C)CO)C(=O)c2cccc(NS(=O)(=O)c3cccs3)c2O[C@@H]1CN(C)Cc1ccc(-c2ccccc2)cc1	32.3
O=C1CC(SCc2ccc(Cl)cc2)C(=O)N1c1ccc(Br)cc1 (configuration not stated)	12.2
CS(=O)(=NS(=O)(=O)c1cccc2nsnc12)c1ccc(Cl)cc1 (configuration not stated)	-4.3

New compounds follow
SMILES	NOMO-1 viab
COC(=O)c1oc2c(c1C)-c1nc3ccccc3nc1C(C)(C)C2	11.1
CCN(CC)CCC(=O)N1N=C(c2ccc(C)cc2)CC1c1ccc(OC)cc1 (configuration not stated)	26.5
c1ccc(CSc2nccc(-c3ccc4c(c3)CCO4)n2)cc1	39.1
O=C(Oc1cccc(OC(=O)c2ccccc2F)c1)c1ccccc1F	26.5
C[C@H]1CN([C@@H](C)CO)C(=O)Cc2cc(NC(=O)C3CCCCC3)ccc2O[C@H]1CN(C)Cc1ccncc1	-22.2
O=C(CSc1nc2ccccc2[nH]1)Nc1cccc(C(=O)O)c1	-19.2
C[C@H](CO)N1C[C@H](C)[C@@H](CN(C)S(=O)(=O)c2cn(C)cn2)Oc2c(NC(=O)Nc3ccccc3)cccc2C1=O	-12.4
COc1ccc(NC(=O)Cc2nc(-c3ccc([N+](=O)[O-])cc3)cs2)cc1	24.3
C[C@@H]1CN([C@@H](C)CO)C(=O)Cc2cc(NC(=O)Cc3cn(C)c4ccccc34)ccc2O[C@@H]1CN(C)C(=O)NC1CCCCC1	9.6
C[C@@H]1CN([C@H](C)CO)C(=O)c2cc(NC(=O)c3ccncc3)ccc2O[C@H]1CN(C)S(=O)(=O)c1ccc(Cl)cc1	0.8
Cc1cc(C)c(C(=O)CSc2nc(C)cc(=O)[nH]2)c(C)c1	-5.5
COc1ccc(NC(=O)N(C)C[C@H]2Oc3ccc(NC(=O)NC4CCCCC4)cc3C(=O)N([C@H](C)CO)C[C@@H]2C)cc1	4.1
O=C(CN1CCN(c2cccc(Cl)c2)CC1)Nc1ccc([N+](=O)[O-])cc1C(=O)Nc1ccccc1F	15.1
Cc1cc(NC(=O)C2C(=O)c3ccccc3S(=O)(=O)N2C)no1 (configuration not stated)	-3.3
C[C@H]1CN([C@@H](C)CO)C(=O)c2cc(NC(=O)Cc3ccccc3)ccc2O[C@@H]1CN(C)Cc1ccc(C(F)(F)F)cc1	45.2
C[C@H](CO)N1C[C@H](C)[C@@H](CN(C)Cc2ccncc2)Oc2ccc(NC(=O)Cc3ccccc3)cc2C1=O	3.4
COc1ccc(NC(=O)Nc2cccc3c2O[C@@H](CN(C)S(=O)(=O)c2ccc(Cl)cc2)[C@H](C)CN([C@H](C)CO)C3=O)cc1	8.1
COc1ccc(S(=O)(=O)N(C)C[C@H]2Oc3c(NS(=O)(=O)c4cn(C)cn4)cccc3C(=O)N([C@@H](C)CO)C[C@@H]2C)cc1	-5.6
CC(C(=O)Nc1cccnc1)N(c1ccc(Oc2ccccc2)cc1)S(C)(=O)=O (configuration not stated)	-9.1
Cc1noc(C)c1NC(=O)Nc1ccc2c(c1)C(=O)N([C@@H](C)CO)C[C@H](C)[C@H](CN(C)C(=O)NC1CCCCC1)O2	35.2
C[C@@H]1CN([C@H](C)CO)C(=O)Cc2cc(NC(=O)c3ccncc3)ccc2O[C@H]1CN(C)S(=O)(=O)c1ccc(F)cc1	2.9
C[C@@H]1CN([C@H](C)CO)C(=O)c2cc(NS(C)(=O)=O)ccc2O[C@H]1CN(C)S(=O)(=O)c1cn(C)cn1	-6.5
N=C(N)c1cc(C(F)(F)F)cc(C(F)(F)F)c1	-14.6
C[C@@H]1CN([C@H](C)CO)C(=O)c2cccc(NC(=O)c3ccc(-c4nccs4)cc3)c2O[C@@H]1CN(C)Cc1ccc(C(=O)Nc2ccccc2N)cc1	142.1*
C[C@H]1CN([C@@H](C)CO)C(=O)c2cccc(NC(=O)c3cnccn3)c2O[C@@H]1CN(C)C(=O)Nc1ccc2c(c1)OCO2	-25.2
More compounds
SMILES	NOMO-1 viab
O=C(Cn1c2ccccc2n2nc(-c3cccs3)nc12)c1ccc(Cl)cc1	114.7*
CN(C)c1ccc(C(O)C(=O)c2ccccc2)cc1 (configuration not stated)	12.3
C[C@@H]1CN([C@H](C)CO)C(=O)Cc2cc(NC(=O)Cn3cnnn3)ccc2O[C@H]1CN(C)C(=O)Nc1cccc2ccccc12	-3.3
C[C@@H]1CN([C@H](C)CO)C(=O)c2cc(NC(=O)c3ccncc3)ccc2O[C@H]1CN(C)Cc1ccc2c(c1)OCO2	25.1
CC1=C(CO)C(=O)OC([C@@H](C)C2CC[C@H]3C4C[C@H]5O[C@]56[C@@H](O)C=CC(=O)[C@]6(C)C4CC[C@]23C)C1 (some centres not stated)	119.6*
C[C@H]1CN([C@@H](C)CO)C(=O)Cc2cc(NS(=O)(=O)c3ccc(F)cc3)ccc2O[C@H]1CN(C)C(=O)Nc1ccc2c(c1)OCO2	-17.3
O=C(O)c1cccc(S(=O)(=O)Nc2ccc(O)cc2Sc2nc3ccccc3s2)c1	-1.1
CNC[C@H]1Oc2ccc(NC(=O)Nc3ccc(C(F)(F)F)cc3)cc2C(=O)N([C@@H](C)CO)C[C@H]1C	4.5
CCn1c(SCC(=O)N2CCCc3ccccc32)nnc1-c1cccs1	13.5
Cc1ccc(C(=O)CCC(=O)Nc2cccnc2)cc1C	17.8
CCOc1ccc(C(C)=O)cc1Cc1c(O)nc(N)[nH]c1=O	-1.7
Cn1cc(C(c2ccc([N+](=O)[O-])o2)c2cn(C)c3ccccc23)c2ccccc21	44.8
CCN(CC)CCNc1ncnc(N)c1[N+](=O)[O-]	22.1
C[C@H]1CN([C@@H](C)CO)C(=O)c2cc(NC(=O)C3CCCCC3)ccc2O[C@@H]1CN(C)Cc1ccc(Oc2ccccc2)cc1	20.8
C[C@H](CO)N1C[C@H](C)[C@H](CN(C)Cc2ccc(-c3ccccc3)cc2)Oc2ccc(NC(=O)Nc3ccc(F)cc3)cc2CC1=O	110.4*
COc1ccc(N2C(=O)CC(SCC(=O)Nc3c(C)cccc3C)C2=O)cc1 (configuration not stated)	15.3
Cc1ccc(S(=O)(=O)Nc2ccc3c(c2)C(=O)N([C@@H](C)CO)C[C@@H](C)[C@H](CN(C)C(=O)NC(C)C)O3)cc1	16.4
Cc1cc(Cl)ccc1N=C(N)NN	7.7
Nc1cccc(-c2nnc(SCC(=O)Nc3cccc(Cl)c3)n2-c2ccccc2)c1	31.8
COc1ccc(NC(=O)Nc2ccc3c(c2)CC(=O)N([C@@H](C)CO)C[C@@H](C)[C@@H](CN(C)Cc2ccc4c(c2)OCO4)O3)cc1	14.6
C[C@@H]1CCCCO[C@H](CN(C)C(=O)NC2CCCCC2)[C@@H](C)CN([C@H](C)CO)C(=O)c2cc(NS(=O)(=O)c3cccs3)ccc2O1	9.7
C[C@H]1CN([C@@H](C)CO)C(=O)c2cc(NC(=O)Nc3ccc(C(F)(F)F)cc3)ccc2O[C@H]1CN(C)Cc1ccc2c(c1)OCO2	106.1*
CCN(CC)CCCCCCCCOC(=O)c1cc(OC)c(OC)c(OC)c1	25.2
COc1ccc(CN(C)C[C@H]2Oc3c(NC(=O)c4ccc(-c5nccs5)cc4)cccc3C(=O)N([C@@H](C)CO)C[C@@H]2C)cc1	40.5
C[C@@H]1CN([C@@H](C)CO)C(=O)c2cccc(NC(=O)C3CC3)c2O[C@@H]1CN(C)S(=O)(=O)c1ccccc1	9.9
Following part
SMILES	NOMO-1 viab
C[C@@H]1CN([C@@H](C)CO)C(=O)Cc2cc(NS(=O)(=O)c3cn(C)cn3)ccc2O[C@@H]1CN(C)S(=O)(=O)c1ccc(F)cc1	13.7
CC(C)(C)C(=O)Nc1c(Cl)sc2nccc(=O)n12	-12.2
C[C@H](CO)N1C[C@H](C)[C@H](CN(C)Cc2ccc(C(=O)Nc3ccccc3N)cc2)Oc2c(NS(=O)(=O)c3cccs3)cccc2C1=O	87.8*
C[C@H]1CN([C@@H](C)CO)C(=O)Cc2cc(NC(=O)C3CCCCC3)ccc2O[C@H]1CN(C)Cc1ccccc1	-0.6
COc1ccc(CN(C)C[C@H]2Oc3c(NC(=O)Nc4c(C)noc4C)cccc3C(=O)N([C@@H](C)CO)C[C@H]2C)cc1	23.0
CNC[C@@H]1Oc2ccc(NS(=O)(=O)c3c(C)noc3C)cc2CC(=O)N([C@H](C)CO)C[C@H]1C	9.4
CCc1ccc2c(c1)=C(c1sc(N)nc1O)C(=O)N=2	13.6
Cc1noc(C)c1S(=O)(=O)Nc1cccc2c1O[C@@H](CN(C)Cc1ccccc1)[C@@H](C)CN([C@@H](C)CO)C2=O	11.9
COc1ccc(S(=O)(=O)N(C)C[C@H]2Oc3ccc(NC(=O)NC(C)C)cc3C(=O)N([C@@H](C)CO)C[C@@H]2C)cc1	5.0
C[C@@H]1CN([C@H](C)CO)C(=O)c2cc(NC(=O)CCC(F)(F)F)ccc2O[C@@H]1CN(C)C(=O)Nc1ccc(F)cc1	6.6
COc1ccc(NC(=O)CN2CCN(S(=O)(=O)c3ccc(F)cc3)CC2)cc1	6.7
Nc1cc(=O)[nH]c(SCC(=O)Nc2ccccc2)n1	16.0
C[C@@H]1CN([C@H](C)CO)C(=O)Cc2cc(NC(=O)Nc3cccc4ccccc34)ccc2O[C@H]1CN(C)S(=O)(=O)c1cccs1	2.3
C[C@@H]1CCCCO[C@H](CN(C)C(=O)c2ccccc2)[C@@H](C)CN([C@H](C)CO)C(=O)c2cc(NC(=O)Nc3ccc(C(F)(F)F)cc3)ccc2O1	?
